Assay outcomes (PubChem BioAssay)
Vaccinia mCherry = qHTS for Stage-Specific Inhibitors of Vaccinia Orthopoxvirus: mCherry Reporter Primary qHTS | Vaccinia virus mCherry reporter infection, fluorescence; about a quarter of the inactives have no number | Potency, µM (titrated, usually from 36.5 µM), inactives show at the top dose activity change, negative = inhibition, usual class: inhibitors | actives 0.63% (n = 310,000); active = well fitted inhibition curve with a large enough effect; inconclusive = small, poorly fitted or top-dose-only effect; inactive = no such curve, though single readings can be large or run the other way; tested in A549 cells; further: nearly all actives have a fitted effect of over 35% in size; inactives centre near -10
VACV Venus inh = qHTS for Stage-Specific Inhibitors of Vaccinia Orthopoxvirus: Venus Reporter Primary qHTS; Vaccinia virus Venus reporter expression, fluorescence; Potency, µM (titrated, usually from 36.5 µM), for inactives: top-dose activity change, negative = inhibition, actives largely listed as inhibitors; actives 0.46% (n = 330,000); active means well fitted inhibition curve with a large enough effect; inconclusive means small, poorly fitted or top-dose-only effect; inactive means no such curve, though single readings can be large or run the other way; tested in A549 cells; further: nearly all actives have a fitted effect of over 30% in size; inactives centre near -10
Active calls of the source: *; i = inactive; ? = inconclusive; · = not tested or not shown; & = joins results of further samples; [ ] = dose if it differs, or a comment. On the % scale 0 is the no-effect control and ±100 the full control effect; potency means the concentration at half of the fitted maximal effect.

SMILES	Vaccinia mCherry	VACV Venus inh
Cc1ccc(C(=O)c2cn(Cc3ccccc3)c3nc(C)ccc3c2=O)cc1	-3%	-5%
COc1cc(NC(=O)CCC2CCCC2)cc(-n2cnnn2)c1	-11%	-10%
Cc1ccc(SCc2cn3c(C)cc(C)nc3n2)cc1	i	-11%
Cc1noc(C)c1C(=O)N1CCC1(C)C(=O)NS(=O)(=O)c1cccc(OC(F)F)c1 (stereo not drawn)	i	-13%
Cc1ccc(-n2nnc3c(=O)n(CC(=O)OCc4ccccc4)cnc32)cc1	i	-12%
O=C1c2ccccc2C(=O)N1OCc1ccc(Cl)cc1	·	-7%
CCSc1ccc(C(=O)Nc2ccc(Br)cn2)cc1[N+](=O)[O-]	-9%	?
O=C(COC(=O)c1cnc(Cl)c(Cl)c1)NCc1cccs1	5%	5%
C[C@H]1CN=C(N(C)C)N1CC1CCC(C(C)(C)C)CC1 (stereo partly drawn)	7.9µM*	?
COC(=O)c1ccc(C23CC4(C2)[C@H](CN(Cc2cccnc2)[C@@H]4c2ccccc2)C3c2ccc(Cl)nc2)cc1 (stereo partly drawn)	?	-17%
Cc1ccc(OC(C)C(=O)Nc2cccc(S(=O)(=O)N3CCCCCC3)c2)cc1 (stereo not drawn)	-15%	-12%
Oc1ccc(-c2nnc(SCC3CCCCC3)o2)cc1	-13%	-4%
Cc1cc(C)c(S(=O)(=O)NCc2cccs2)cc1C	-13%	?
O=C(O)c1ccc(NS(=O)(=O)c2ccc3c(c2)OCCO3)cc1	-3%	1%
COc1ccc(-n2c(C)cc(C=O)c2C)cc1Cl	-11%	-3%
Cc1ccc(OCC(=O)N(C)CCc2ccccn2)cc1	?	-6%
O=C(NCc1ccccn1)c1ccc(OC2CCN(Cc3ccccc3O)CC2)cc1	-3%	-16%
Fc1ccc(CNC(=S)NCc2cccc(Cl)c2)cc1	-10%	-22%
O=c1[nH]c(=S)[nH]c2c1C(c1cc([N+](=O)[O-])c(N3CCOCC3)cc1N1CCOCC1)O2 (stereo not drawn)	0%	1%
c1ccn(-c2ncnc3sc4c(c23)CCCC4)c1	·	-25%
Cc1ccc(N2C(=O)NC(NS(=O)(=O)c3ccc(Cl)cc3)(C(F)(F)F)C2=O)cc1C (stereo not drawn)	-9%	-8%
O=c1oc([C@@H](O)c2ccccc2)cc2ccccc12	-24%	-4%
O=C(Nc1ccon1)c1ccc(S(=O)(=O)N2CCCCCC2)cc1	·	-10%
O=C(/C=C/c1ccc(Cl)cc1)N1CCN(c2ccccc2[N+](=O)[O-])CC1	-16%	-16%
Cc1nn(CCC#N)c2c1P(=S)(N1CCCC1)OC(c1ccc(F)cc1)=N2 (stereo not drawn)	-9%	-1%

Going on with the list:
SMILES	Vaccinia mCherry	VACV Venus inh
COCc1ccc(CN2CCOc3ccc(C4=Cc5ccccc5C4)cc3C2)o1	-14%	-9%
Cc1ccc[n+](-c2nc3ccccc3nc2C(=C=[N-])C#N)c1	-20%&-4%	-5%&-2%
N#CC(C(=O)Nc1ccc(Cl)cc1)=C1Nc2ccccc2N1	-28%[1.46 µM]	-26%
CCOc1ccccc1NC1=C(OC)C(=O)C(Nc2ccccc2OCC)=C(OC)C1=O	-12%	-7%
COc1ccc(OC)c(NC(=O)COC(=O)CC2CCCCC2)c1	-14%	-5%
COCCNC(=O)C(c1ccc(C)cc1)N(CCOC)C(=O)CCC(=O)Nc1nccs1 (stereo not drawn)	-5%	1%
O=C(NCc1ccco1)/C(=C/c1ccccc1F)NC(=O)c1ccccc1	i	-14%
Cc1nnc(NC(=O)CSc2ccc(-c3ccc(Cl)cc3)nn2)s1	i	2%
CCN(C(=O)Cc1c(C(=O)O)n(C)c2ccccc12)c1ccc(F)cc1	-1%	0%
C=CCSc1nnc(NC(=O)CSc2nc3ccccc3o2)s1	-15%	-10%
COc1ccc(/C=C2/SC(=O)N(CCNC(=O)C3CCCN3C(=O)c3cccs3)C2=O)cc1 (stereo not drawn)	-4%	-10%
O=C(Nc1ccc(C(F)(F)F)cc1)C1CCCN(S(=O)(=O)c2cccc3cccnc23)C1 (stereo not drawn)	-28%	-12%
COc1ccc(CC(=O)Nc2nccs2)cc1OC	i	-9%
CSc1nnc(CCNC(=O)c2ccccc2C(F)(F)F)n1-c1ccc(F)cc1	-5%	8%
CCOc1ccc(CCNC(=O)C2CCN(c3ccc(N4CCOCC4)nn3)CC2)cc1OCC	-8%	-7%
COC1C(C)OC(OC2CC(C)(O)Cc3cc4c(c(O)c32)C(=O)c2c(O)cc3c(c2C4=O)OC2OC3(C)C(O)C(N(C)C)C2O)C(OC)C1(C)OC (stereo not drawn)	44%[activator]	251%[activator]
Cc1cc(Cl)ccc1NC(=O)CCn1nc(C)c2c(C)n(-c3ccccc3)nc2c1=O	-18%	-12%
Cc1cc(NC(=O)CSc2nc3ccccc3c(=O)n2C(C)c2ccccc2)no1 (stereo not drawn)	·	-23%
CCC(=O)N1CCc2cc(Br)cc(S(=O)(=O)CCC(=O)Nc3ccc(Cl)cc3)c21	-11%	-10%
O=C(Nc1cccnc1)c1cc(S(=O)(=O)N2CCCCC2)c(Cl)cc1Cl	10%	5%
Cc1ccc(C)c(-n2c(SCC(=O)NCC3CCCO3)nnc2-c2ccoc2C)c1 (stereo not drawn)	6%	3%
CCOc1ccccc1N1CC(C(=O)Nc2nccs2)CC1=O (stereo not drawn)	-25%	-22%
CC1(C)Oc2ccc3ccc(=O)oc3c2[C@H](O)[C@H]1O	-13%	-8%
CC(C)(C)c1ccc2c(c1)C(c1ccc3c(c1)OCO3)CC(=O)O2 (stereo not drawn)	i	-1%
COc1cccc(C(=O)Nc2nc(-c3ccc(Br)cc3)ns2)c1	-20%	-23%

Some of these compounds in order of count of non-hydrogen atoms, lowest first:
SMILES	Vaccinia mCherry	VACV Venus inh
O=c1oc([C@@H](O)c2ccccc2)cc2ccccc12	-24%	-4%
O=C(COC(=O)c1cnc(Cl)c(Cl)c1)NCc1cccs1	5%	5%
N#CC(C(=O)Nc1ccc(Cl)cc1)=C1Nc2ccccc2N1	-28%[1.46 µM]	-26%
CCOc1ccccc1N1CC(C(=O)Nc2nccs2)CC1=O (stereo not drawn)	-25%	-22%
O=C(Nc1ccon1)c1ccc(S(=O)(=O)N2CCCCCC2)cc1	·	-10%

(cont.)
SMILES	Vaccinia mCherry	VACV Venus inh
COc1ccc(-c2cc(C(=O)Nc3sc4c(c3C(N)=O)CCC(C)C4)no2)cc1 (stereo not drawn)	-7%	-4%
CCOc1cc(C)c(Cl)cc1S(=O)(=O)NCC1CCCO1 (stereo not drawn)	·	-17%
OC1(c2cccnc2)CCN(Cc2ccc3c(c2)CN(Cc2cccc(F)c2F)CCO3)CC1	-16%	-2%
COC(=O)C1=C(c2ccc(C(C)=O)cc2)C[C@@H]2CC[C@H]1N2C(=O)NC1Cc2ccccc2C1	i	-7%
COc1ccc(-c2nc(-c3cccc(C)c3)[nH]c(=O)c2C#N)cc1	-2%	-16%
CCOC(=O)[C@]12CCCC=C1N(Cc1ccc(Cl)cc1Cl)C(=O)[C@H](CC(=O)NCc1ccccc1)C2	-26%	-21%
O=C(O)Cc1sc(Nc2ccc(F)cc2)nc1-c1cccs1	-23%	4%
O=[N+]([O-])c1cccc(Cl)c1NCCNS(=O)(=O)c1ccc(Cl)cc1	i	-3%
COc1cccc(N2CCN(C(=O)CC(C)(C)CC3=NS(=O)(=O)c4ccccc4N3)CC2)c1	-8%	-15%
Cc1ccc(S(=O)(=O)c2cnc(SC(C)C(=O)Nc3ccccc3)[nH]c2=O)cc1 (stereo not drawn)	-5%	3%
CC(=O)N(C(C)=O)c1ncnc2c1c(-c1ccc(Cl)cc1)nn2C(C)(C)C	?	?
Cn1c(=O)[nH]c(=O)c2c1nc(CN1CCN(c3cccc(Cl)c3)CC1)n2CCCc1ccccc1	8%	-12%
CCCCNC(=O)C1(C)CCN1C(=O)Cc1ccc(OC)cc1 (stereo not drawn)	33%[activator]	-6%
CC(OC(=O)Cn1[nH]c(=O)c2ccccc2c1=O)C(=O)Nc1cccc(Cl)c1 (stereo not drawn)	-15%	-20%
Cc1ccc(C)n1-c1ccc(NC(=O)c2ccccc2)cc1	-10%	-4%
CCOC(=O)c1c(/N=C/C2C(=O)CCCC2=O)sc2c1CCCC2	?	-7%
Cc1ccc(C)c(NC(=O)CN(C)C(=O)c2ccc3c(=O)n4c(nc3c2)CCC4)c1	1%	-10%
Cc1nc2sc(C(c3ccco3)N3CCN(C(c4ccccc4)c4ccccc4)CC3)c(O)n2n1 (stereo not drawn)	i	?
O=C(Nc1ccc2c(c1)OCCO2)c1ccc2nccnc2c1	-1%	-8%
COC(=O)CC(NC1CCN(c2nc(C)c3cc4c(cc3n2)CCC4)CC1)C(=O)OC (stereo not drawn)	-10%	4%
CCOC(=O)[C@H]1[C@H]2COc3ccc(Br)cc3[C@@H]2N2C(=O)c3c(C)cc(C)cc3NC(=O)[C@@]12C	-15%	-4%
Cc1ccc2nc(CSc3nnc(Nc4ccccc4C)s3)cc(=O)n2c1	-12%	-5%
Cc1c(NC(=O)c2cccc(-c3cc4ccccc4oc3=O)c2)cccc1-c1nc2ncccc2o1	-9%	-20%
Cc1ccc(S(=O)(=O)N(C)c2ccc(C(=O)N(CC(C)C)C3CCS(=O)(=O)C3)cc2)cc1 (stereo not drawn)	-14%	-6%
Cn1c(SCc2nc3ccccc3[nH]2)nnc1-c1ccccn1	-5%	-30%

Exported as labelled records: 4 of the compounds above.
> OC1(c2cccnc2)CCN(Cc2ccc3c(c2)CN(Cc2cccc(F)c2F)CCO3)CC1
  Vaccinia mCherry = -16%
  VACV Venus inh = -2%
> COC(=O)C1=C(c2ccc(C(C)=O)cc2)C[C@@H]2CC[C@H]1N2C(=O)NC1Cc2ccccc2C1
  Vaccinia mCherry = i
  VACV Venus inh = -7%
> COc1ccc(-c2nc(-c3cccc(C)c3)[nH]c(=O)c2C#N)cc1
  Vaccinia mCherry = -2%
  VACV Venus inh = -16%
> CCOC(=O)[C@]12CCCC=C1N(Cc1ccc(Cl)cc1Cl)C(=O)[C@H](CC(=O)NCc1ccccc1)C2
  Vaccinia mCherry = -26%
  VACV Venus inh = -21%

More entries follow.
SMILES	Vaccinia mCherry	VACV Venus inh
COC(=O)c1cccc(C23CC4(C2)[C@H](CN(Cc2ccc(C(F)(F)F)cc2)[C@@H]4c2ccccc2)C3c2ccccc2)c1 (stereo partly drawn)	-10%	-30%
Cc1cc2nc(-c3ccc(Cl)cc3)c(Cc3cccc(F)c3)n2c(C)c1Br	24%	6%
COc1ccnc(Oc2ccccc2)c1C(=O)N/C=N/OCc1ccccc1F	-14%	-7%
COc1ccc2cc(C(=O)N3CCN(c4cccc(C)c4C)CC3)[nH]c2c1	-3%	1%
CN(Cc1ccccc1)Cc1nc2c(c(=O)n(C)c(=O)n2C)n1CCCc1ccccc1	i	-5%
CCNC(=O)OCCC12CC3CC(CC(C3)C1)C2	-13%	-4%
O=C(NCCc1nnc2ccc(NCc3ccccc3Cl)nn12)c1ccccc1	-13%	-10%
O=C(O)CSCC(=O)NCc1ccc(Cl)cc1Cl	i	-6%
Cc1ccnc(SCC(=O)c2cccc([N+](=O)[O-])c2)n1	-21%	-12%
COC(=O)c1cn(NC(=O)Cn2nc([N+](=O)[O-])c(Cl)c2C)c(=O)c2ccccc12	-8%	22%
C=CCN1C(=O)C(Cc2ccc(F)cc2)S/C1=N/N=C/c1cccs1 (stereo not drawn)	·	-6%
Cc1ccccc1OCCn1c(=O)oc2ccccc21	·	-4%
CCOC(=O)C(O)(c1ccc(NC(=O)c2ccco2)c(OC)c1)C(F)(F)F (stereo not drawn)	·	32%[activator]
CCC(=O)Nc1ccc(S(=O)(=O)Nc2c(C)nc3nc[nH]n3c2=O)cc1	-3%	4%
O=c1nc2c(-c3cccc(Br)c3)n[nH]n2c2ccccc12	-11%	-21%
COc1ccc(Cl)cc1NC(=O)CN(C)C(=O)c1ccc(COc2ccccc2)cc1	-21%	-20%
CCc1cccc(C)c1Nc1c(-c2cccc(O)c2)nc2sccn12	-17%	-15%
CCOC(=O)CSc1cc(CS(=O)c2ccc(Cl)cc2)nc(-c2ccccc2)n1 (stereo not drawn)	·	-11%
Cc1ccc(/C=N/Nc2ccc(C(=O)O)cc2)s1	-4%	4%
CCn1c(SCc2c(F)cccc2Cl)nnc1-c1ccco1	i	-15%
Cc1cccc(OCC(=O)Nc2ccc(S(=O)(=O)Nc3ccccn3)cc2)c1	-18%	-18%
CCCn1c(=O)n(-c2ccccc2Cl)c(=O)c2sc3ccccc3c21	-5%	-3%
CC(C)(C)c1ccc(OC(=O)c2ccc3nsnc3c2)cc1	-10%	-14%
CCN(CCn1cccn1)C(=O)c1cc(COc2ccc(F)c(F)c2)on1	-24%	-6%
Cc1ccccc1C(=O)Nc1ccnn1C1CCN(C(=O)C2CCOC2)CC1 (stereo not drawn)	i	-14%
CCN(CC(=O)NCc1cccs1)S(=O)(=O)c1cccc(C(C)=O)c1	10%	8%
Cc1ccc(SCC2CNc3nc4ccccc4c(=O)n32)c(C)c1 (stereo not drawn)	·	-13%
COc1cc(C2C(C(C)=O)=C(O)C(=O)N2CCN(C)C)ccc1O (stereo not drawn)	i	-6%
O=C(NNC(=O)c1ccc([N+](=O)[O-])cc1)c1ccc(NS(=O)(=O)c2cccs2)cc1	i	0%
CCCCN1C(=O)/C(=c2\sc3nc(=O)c(-c4ccccc4)nn3c2=O)c2ccccc21	-15%[1.46 µM]	-4%
